# AID923: qHTS Assay for Allosteric/Competitive Inhibitors of Caspase-1: Spectroscopic Profiling in AFC Spectral Region; compound fluorescence, AFC spectral region (405/520 nm); almost no hit is shown here; Potency, µM (top dose mostly 57.5 µM), without a hit: top-dose fluorescence increase, usual class: activators; actives 1.1% (n = 75,000); active = well fitted activation curve with a large enough effect; inconclusive = small, poorly fitted or top-dose-only effect;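 note: potency is the fitted concentration of half-maximal effect; 0% is about no effect; scaled to a free AFC standard on each plate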
#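 Compound autofluorescence profiled at 405 nm ex/520 nm em during kinetic caspase 1 run (50 nM enzyme, 5 uM Ac-WEHD-AFC, HEPES pH 7.5, 10 mM DTT). Titration up to 57 uM; baseline from regression intercept, normalized to AFC standard curve.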
# TSHR ag: TSH receptor (human) agonism. HEK293-CNG-TSHR cells (CNG channel as cAMP sensor), membrane potential dye, cAMP. Potency, µM (doses to about 57.1 µM), for the others: at the highest dose activation, usual class: activators. P16473. actives 0.48% (n = 73,000); active = well fitted activation curve of enough size with the parental cells flat; inconclusive = any curve in the parental cells; inactive = parental cells flat and receptor cells flat or falling; note: potency is the fitted concentration of half-maximal effect; % of control where 0% means no effect; weak receptor curves with flat parental cells got no call and are not listed
# Target sequence (P16473 whole entry, looked up): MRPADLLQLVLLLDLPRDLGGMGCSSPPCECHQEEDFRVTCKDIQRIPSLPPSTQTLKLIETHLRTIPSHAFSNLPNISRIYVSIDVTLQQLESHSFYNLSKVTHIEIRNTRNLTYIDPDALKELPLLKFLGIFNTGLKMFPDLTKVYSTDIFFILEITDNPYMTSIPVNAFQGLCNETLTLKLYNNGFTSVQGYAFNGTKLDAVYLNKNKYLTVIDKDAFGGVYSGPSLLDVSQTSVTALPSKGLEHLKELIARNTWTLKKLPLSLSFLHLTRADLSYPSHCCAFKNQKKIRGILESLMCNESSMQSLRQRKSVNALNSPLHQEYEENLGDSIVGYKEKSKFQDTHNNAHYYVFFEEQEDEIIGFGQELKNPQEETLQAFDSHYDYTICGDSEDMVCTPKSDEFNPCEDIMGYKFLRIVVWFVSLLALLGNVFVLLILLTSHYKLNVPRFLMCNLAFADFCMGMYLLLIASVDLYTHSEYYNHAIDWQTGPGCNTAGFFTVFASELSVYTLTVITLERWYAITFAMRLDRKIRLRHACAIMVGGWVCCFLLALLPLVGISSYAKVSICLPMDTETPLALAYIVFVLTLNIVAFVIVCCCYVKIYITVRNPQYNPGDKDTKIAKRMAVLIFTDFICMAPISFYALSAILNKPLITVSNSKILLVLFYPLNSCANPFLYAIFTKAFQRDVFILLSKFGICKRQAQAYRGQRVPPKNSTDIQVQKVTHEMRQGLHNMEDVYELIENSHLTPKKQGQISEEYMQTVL
#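 HEK 293 cells stably expressing TSHR and a modified CNG channel, with CNG-only parental cells as counterscreen, were preloaded 60 min at room temperature with membrane potential dye containing 100 uM RO 20-1724. Compound exposure was 30 min, and depolarization was read as fluorescence at 590 nm.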
# A488 fluor: compound fluoresces in the A488 spectral region | actives 0.1% (n = 59,000) | compound autofluorescence, A488 spectral region, dye equivalency; stronger effect = higher value | max dye equivalency, M; active = above 10 nM dye equivalent; inconclusive = 1 to 10 nM; inactive = 1 nM or less; about half of its hits are not listed in these tables;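 note: highest value over a series up to 38 µM; compound alone in buffer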
#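 Spectroscopic profiling in the A488 region: compounds in pH 8.0 Tris (100 mM), 15 min RT, CCD imaging with 480 nm excitation and 540 nm emission; responses normalized against A488 dye standards.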
# A647 fluor: A647 region autofluorescence; Compound fluorescence, A647 channel (570/671 nm), Tris buffer; max dye-equivalent concentration, M; 59,000 tested, under 10 active; active means above 1 µM dye equivalent; inconclusive means 0.1 to 1 µM; inactive means 0.1 µM or less;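 note: values scaled relative to a standard on each plate; highest value over a series up to 38 µM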
#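 Tris 100 mM pH 8.0; cpd + A647 stds pin-transferred; 15 min RT; CCD imager, ex 570/em 671. Output = A647-equivalent conc. per cpd conc.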
# Resorufin autofl: resorufin region autofluorescence | Compound fluorescence, resorufin region 547/598 nm, buffer; stronger effect = higher value | max dye-equivalent concentration, M | actives 0.04% (n = 59,000); active = above 10 nM dye equivalent; inconclusive = 1 to 10 nM; inactive = 1 nM or less; a few of its hits are not listed in these tables; note: highest value over a series up to 38 µM
#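 Compounds in 100 mM Tris buffer, pH 8.0, incubated 15 min at room temperature, then read with 547 nm excitation and 598 nm emission filters. Fluorescence was converted to dye-equivalent concentration using an on-plate six-point resorufin standard curve.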
# * = called active by the depositor; i = inactive; u = inconclusive; x = not tested or not shown; [ ] = remark or other dose. Not all compounds are listed. The share of hits here may be higher or lower than overall.
SMILES,AID923,TSHR ag,A488 fluor,A647 fluor,Resorufin autofl
CC(=O)Nc1ccc(S(=O)(=O)N(C2=NCC(C)S2)c2ccccc2)cc1 (configuration not stated),-3.7%,x,i,8e-09,i
CCOc1ccc(NC(=O)CN2C(=O)C3CCCN3C2=O)cc1 (configuration not stated),-1.2%,35%,x,x,x
COC(=O)c1ccc(NC(=O)Nc2ccc(F)cc2)cc1,-2.2%,14%,i,4.8e-09,i
c1ccc(CSCCc2ccncc2)cc1,-0.7%[11.5 µM],1%[11.4 µM],i,2e-09,i
COc1cc2c(cc1O)C(SC)=NC(C)(C)C2,0.1%,x,i,1e-09,i
COc1ccccc1CNc1ncnc2ccc(-c3cccnc3)cc12,-1.1%,16%,i,5.3e-09,i
Cc1ccc2[nH]c3c(=O)n(CCCN4CCN(C)CC4)cnc3c2c1,0.2%,0%,i,1e-09,i
Cc1nc(SCC(=O)CC(=O)OC(C)C)c(C#N)c(C)c1C,2.2%,u,i,4e-08,i
CCn1cc(/C=N/O)c(C)n1,x,x,i,3.6e-08,i
CC(C)(C)OC(=O)N1CCC(C(=O)O)CC1,0.5%,2%,i,1e-09,i
C=CC1=C(C(=O)O)N2C(=O)[C@@H](NC(=O)/C(=N\OCC(=O)O)c3csc(N)n3)[C@@H]2SC1,-2.7%[25.7 µM],x,i,1e-09,i
Cc1cc(Cl)ccc1OCC(=O)N1CCCCC1,1.4%,x,i,1.2e-08,i
CCOc1ccc(-c2nnc3sc(COc4ccccc4)nn23)cc1,x,x,i,9.1e-09,i
Cc1nnc(N2CCOCC2)c2ccccc12,x,x,i,1e-09,i
CC(C)CCNC(=O)NC(=O)CSc1nnc(-c2ccccc2Br)o1,-2.0%,u,i,3.1e-08,i
O=C(Nc1ccc(Nc2ccccc2)cc1)c1ccco1,0.1%,-21%,i,4.5e-09,i
COc1ccc(-c2nnc3ccc(SCC(N)=O)nn23)cc1OC,-1.3%,4%[11.4 µM],i,3.6e-09,i
O=C1CCCc2c1nc(-c1ccccc1)n2O,-0.7%,0%,i,3e-09,i
O=c1oc2ccccc2n1CCn1c2ccccc2c2nc3ccccc3nc21,8.8%,u,i,6.2e-08,i
Cc1ccccc1-c1ccc2ncnc(-n3ccnc3)c2c1,2.3%,29%,i,1.7e-08,i
CC(C)(C)NC(=O)C(c1ccccc1F)N(Cc1ccco1)C(=O)c1csnn1 (configuration not stated),0.0%,25%,i,4.4e-09,i
Cc1ccc2oc(=O)c3cnn(CC(=O)Nc4ccccc4N4CCN(C)CC4)c3c2c1,-1.0%,7%,x,x,x
COCCCn1c2nc3ccccc3nc2c2c(=O)n(-c3ccccc3OC)c(C)nc21,x,x,i,7.6e-09,i
CC(C)OC(=O)CSc1nnc(-c2cnccn2)n1-c1ccccc1,-0.9%,5%,i,3.4e-08,i
CN(C)CCCOC(=O)Cc1ccc(Cl)cc1,-0.6%,x,i,5.9e-09,i

# A draw from above in order of heavy-atom count, falling:
SMILES,AID923,TSHR ag,A488 fluor,A647 fluor,Resorufin autofl
COc1ccccc1CNc1ncnc2ccc(-c3cccnc3)cc12,-1.1%,16%,i,5.3e-09,i
CCOc1ccc(-c2nnc3sc(COc4ccccc4)nn23)cc1,x,x,i,9.1e-09,i
COc1ccc(-c2nnc3ccc(SCC(N)=O)nn23)cc1OC,-1.3%,4%[11.4 µM],i,3.6e-09,i
Cc1cc(Cl)ccc1OCC(=O)N1CCCCC1,1.4%,x,i,1.2e-08,i

# The main list resumes; the 3 compounds before the break are reprinted first.
SMILES,AID923,TSHR ag,A488 fluor,A647 fluor,Resorufin autofl
COCCCn1c2nc3ccccc3nc2c2c(=O)n(-c3ccccc3OC)c(C)nc21,x,x,i,7.6e-09,i
CC(C)OC(=O)CSc1nnc(-c2cnccn2)n1-c1ccccc1,-0.9%,5%,i,3.4e-08,i
CN(C)CCCOC(=O)Cc1ccc(Cl)cc1,-0.6%,x,i,5.9e-09,i
Cc1ccc(-n2nnnc2SC(C)C(N)=O)c(C)c1 (configuration not stated),-0.9%,0%,i,1.6e-08,i
Nc1nc(N)c2sc3nc4c(cc3c2n1)CCC4,4.5%,-8%,i,1e-09,i
COc1cc(C2=NOC(C(=O)Nc3ccc(C(C)=O)cc3)C2)cc(OC)c1OC (configuration not stated),-0.3%,x,i,1.3e-08,i
O=C(Nc1cc(C(F)(F)F)ccc1N1CCOCC1)c1ccco1,-0.1%,x,i,1.3e-08,i
Cc1ccc(NC(=O)CN(C)S(=O)(=O)c2cccs2)cc1F,2.5%,u,i,1.2e-09,i
CCOC(=O)C1=C(C)NC(SCC(=O)OC)=C(C#N)C1c1ccc(C(=O)OC)cc1 (configuration not stated),1.5%,u,i,3.5e-08,i
CCCOc1ccccc1C(=O)N(Cc1ccco1)C1CCS(=O)(=O)C1 (configuration not stated),-0.1%,14%,i,7e-09,i
COc1cccc(C(=O)Cn2c(N3CCCCC3)nc3c2c(=O)n(C)c(=O)n3C)c1,0.1%,-8%,i,1e-09,i
CC(=O)Nc1ccc(S(=O)(=O)Nc2c(C)n(C)n(-c3ccccc3)c2=O)cc1,0.0%,-1%,i,1.3e-09,i
COc1ccc(C2/C(=C(/O)c3ccccc3)C(=O)C(=O)N2C)cc1 (configuration not stated),0.5%,-3%,x,x,x
O=C(NCCCN1CCOCC1)c1cccs1,0.6%,14%,i,1e-09,i
COC(=O)COc1ccc(S(=O)(=O)Nc2ccc(NC(C)=O)cc2)cc1,0.6%,-3%,i,1.2e-08,i
COc1ccc(C(=O)N2CCC[C@@]3(CCN(Cc4nccs4)C3)C2)cc1,1.9%,10%,i,1e-09,i
COc1ccc2c(c1)C(=O)N(c1ccccc1OC)C(=O)C2,19%,-2%,i,1e-09,i
COc1ccc(-n2c(SCC(=O)Nc3nccs3)nc3c(c2=O)SCC3)cc1,-5.1%,7%,x,x,x
COc1ccc(N2C(=O)CCC(C(=O)N(C)C3CCCCC3)C2c2ccc(OC)c(OC)c2)cc1 (configuration not stated),-1.2%,-3%[11.4 µM],i,4e-08,i
COC(=O)[C@H](Cc1ccccc1)NC(=O)[C@H]1C[C@@H]1[C@H](NC(=O)OCc1ccccc1)c1ccccc1,2.7%,u,x,x,x
CC(C)(C)n1nnnc1C(c1ccncc1)N1CCCCCC1 (configuration not stated),1.7%,15%,i,2.2e-08,i
COc1ccc(C)cc1-n1c(-c2ccncc2)n[nH]c1=S,1.1%,5%,i,3.5e-08,i
Cn1nnnc1SCc1nc2ccccc2s1,-0.4%,-2%,i,1e-09,i
COCC(=O)N1CCC2(CCN(Cc3ccncc3)CC2)CC1,8.5%,u,i,1e-09,i
c1ccc(-c2nc3c4ccccc4nc(N4CCN(c5ccccn5)CC4)n3n2)cc1,1.2%,9%[11.4 µM],i,1.4e-08,i

# Quoted at random: 7 entries already listed
SMILES,AID923,TSHR ag,A488 fluor,A647 fluor,Resorufin autofl
CCOc1ccc(-c2nnc3sc(COc4ccccc4)nn23)cc1,x,x,i,9.1e-09,i
CC(=O)Nc1ccc(S(=O)(=O)N(C2=NCC(C)S2)c2ccccc2)cc1 (configuration not stated),-3.7%,x,i,8e-09,i
CC(C)(C)OC(=O)N1CCC(C(=O)O)CC1,0.5%,2%,i,1e-09,i
COc1cc(C2=NOC(C(=O)Nc3ccc(C(C)=O)cc3)C2)cc(OC)c1OC (configuration not stated),-0.3%,x,i,1.3e-08,i
CCn1cc(/C=N/O)c(C)n1,x,x,i,3.6e-08,i
COc1ccccc1CNc1ncnc2ccc(-c3cccnc3)cc12,-1.1%,16%,i,5.3e-09,i
Cc1ccc2oc(=O)c3cnn(CC(=O)Nc4ccccc4N4CCN(C)CC4)c3c2c1,-1.0%,7%,x,x,x
